Screens deposited in PubChem by several laboratories.
Mtb H37Rv: M. tuberculosis H37Rv growth inhibitors, H37Rv strain (AID 1626); 220,000 compounds, 0.95% hits; one-dose inhibition, % at 10 µM; IC50 in µM for titrated hits; M. tuberculosis H37Rv growth inhibition; higher % means a stronger effect;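 active = confirmed in a dose series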;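 also: bacteria incubated seven days before Alamar blue readout; 0% = bacteria only wells and 100% = bacteria with antibiotic wells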
YopH inh: inhibitors of Yersinia enterocolitica YopH tyrosine phosphatase | fluorescence Ex485/Em525 | inhibition, %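 (about 10 µM by stock and volumes)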 | 140,000 compounds, 0.16% hits | AID 898;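 active = inhibition of 50% or more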;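 also: controls were vehicle for no effect and minimum signal wells for full effect; inactives centre near -20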
Arbovirus anti: arbovirus infection inhibition. inhibition, % at 10 µM. arbovirus infection cell-based antiviral screen. AID 1251. 200,000 compounds, 0.37% hits;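 active = inhibition from about 30%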;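 also: bluetongue infection of BSR cells; cell survival read as ATP light after 72 h; 0% = infected wells without compound and 100% = uninfected wells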
Mtb betalactam: beta-lactam sensitization of Mtb H37Rv; AID 434955; M. tuberculosis H37Rv growth with meropenem, percent inhibition; hits of this screen are not shown here; inhibition, % at 25 µM; 330,000 compounds, 0.27% hits;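 active = about 74% or more and at least 40 points above the plate without the antibiotic, then above 30% in a dose series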;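 also: growth measured after seven days incubation then overnight dye step; 0% = bacteria only wells and 100% = bacteria with antibiotic; twin plates without the antibiotic show which effects depend on it; some results filed as inactive read as strong as hits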
RecA intein inh: Mtb RecA intein splicing inhibition; cell-free RecA intein splicing, fluorescence; 290,000 compounds, 0.75% hits; P9WHJ3; inhibition, %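 (about 9 µM by stock and volumes)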; AID 2221; in the data active = inhibition above about 30%;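 also: 0% = vehicle wells and 100% = reference inhibitor control wells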
Target sequence (P9WHJ3 whole entry, looked up): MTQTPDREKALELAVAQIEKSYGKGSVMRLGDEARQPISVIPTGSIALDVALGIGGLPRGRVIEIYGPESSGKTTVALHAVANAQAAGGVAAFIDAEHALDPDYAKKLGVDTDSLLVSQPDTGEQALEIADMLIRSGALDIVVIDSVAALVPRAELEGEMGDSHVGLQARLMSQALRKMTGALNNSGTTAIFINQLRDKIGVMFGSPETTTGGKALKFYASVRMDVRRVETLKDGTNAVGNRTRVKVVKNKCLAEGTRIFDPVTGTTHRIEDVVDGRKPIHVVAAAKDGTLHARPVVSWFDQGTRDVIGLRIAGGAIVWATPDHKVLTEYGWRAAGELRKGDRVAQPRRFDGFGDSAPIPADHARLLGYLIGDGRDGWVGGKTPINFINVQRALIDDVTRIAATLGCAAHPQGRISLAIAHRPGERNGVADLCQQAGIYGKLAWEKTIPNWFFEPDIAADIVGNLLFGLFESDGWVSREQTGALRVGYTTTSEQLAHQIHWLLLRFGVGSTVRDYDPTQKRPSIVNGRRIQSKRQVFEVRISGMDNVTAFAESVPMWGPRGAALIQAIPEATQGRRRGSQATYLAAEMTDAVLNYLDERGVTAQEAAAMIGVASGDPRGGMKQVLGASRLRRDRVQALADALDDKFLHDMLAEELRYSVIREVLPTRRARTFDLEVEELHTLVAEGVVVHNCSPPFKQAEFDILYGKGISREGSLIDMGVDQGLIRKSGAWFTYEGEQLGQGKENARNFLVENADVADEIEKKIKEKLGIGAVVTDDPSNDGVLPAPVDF
Arbovirus anti repeat: second read-out of Arbovirus anti, no call of its own (marks repeat the call); inhibition, %; measured here: 10K subset replicate screen; many hits read low in the repeat;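 first of two repeat runs on a subset; 0% = infected and 100% = uninfected wells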
An asterisk follows results filed as active; . = no result given; & = joins results of further samples. Some of the compounds tested, so the mix of outcomes need not match the whole.

SMILES | Mtb H37Rv | YopH inh | Arbovirus anti | Mtb betalactam | RecA intein inh | others
COc1cccc(NC(=O)[C@H](C)NC(=O)N2CCn3c2nc2ccccc23)c1 | . | . | . | 4 | -2.8
O=C(NCCS(=O)(=O)NCc1ccco1)c1ccccc1 | . | . | . | -10 | 0.7
Cn1cccc1/C=C1\SC(=S)N(NC(=O)c2ccccc2O)C1=O | -6% | . | . | -3 | -2.0
O=C(NC1CC1)C1=C[C@H](c2c[nH]c3ccccc23)C[C@H](OCCCCO)O1 | -11% | . | . | 2 | 7.4
O=C(COC(=O)c1cc([N+](=O)[O-])ccc1NCc1ccccc1)NCc1ccccc1Cl | -1% | -2 | -2 | 11 | -8.0
CCN1C(=O)CC(c2ccccc2)CC1=O | . | . | . | -3 | -0.3
Cc1ccc(Cn2nc(C)c(NC(=O)CSc3nc4c(c(C(F)(F)F)n3)CCc3ccccc3-4)c2C)cc1 | 6% | -21 | -3 | 2 | -4.9
CN(C)CCCNC(NC(=O)c1cccs1)C(Cl)(Cl)Cl (configuration not stated) | 2% | -30 | 10 | 3 | -1.3
COC(=O)Cn1c(CCS(=O)(=O)c2ccc(C)c(C)c2)nc2ccccc21 | 6% | -46 | 1 | -1 | 0.9
CCCCN(Cc1ccccc1)C(=O)CCN1C(=O)C2C3C=CC(C3)C2C1=O (configuration not stated) | 4% | . | 4 | -8 | 2.1
Cc1nnc(NC(=O)c2nc(S(=O)(=O)Cc3ccccc3C)ncc2Cl)s1 | . | . | . | 1 | 67*
CCn1c(-c2nn(C)cc2Cl)n[nH]c1=S | 4% | -13 | -1 | 7 | -1.4
Cc1nc(/C(N)=N/OC(=O)c2ccc(Cl)cc2)c(C(F)(F)F)o1 | 6% | . | . | -6 | 0.5
O=c1nc(N/N=C/c2ccco2)cn[nH]1 | -7% | . | -5 | 10 | .
Cc1cc(C)nc(SCC(=O)Nc2ccc(S(=O)(=O)Nc3onc(C)c3C)cc2)n1 | -10% | -52 | 8 | 1 | . | Arbovirus anti repeat=-4
Cn1c(O)c(/C=C2\C=NN=C2c2ccccc2)sc1=S | -8% | . | . | 93 | 0.1
COC(=O)[C@]1(C)N[C@H](c2ccc(SC3CCCCC3)cc2)[C@@H]2C(=O)N(C)C(=O)[C@@H]21 | . | . | . | -8 | 1.7
COc1ccc(NC(=S)NCc2cccn2C)cc1 | -3% | . | 1 | -2 | -1.8
CN(C)c1nnnn1Cc1ccc(Cl)cc1Cl | . | . | 1 | -3 | 1.6
CC(=O)Nc1ccc(S(=O)(=O)NNC(=O)c2sc(=S)n(C)c2C)cc1 | 6% | -13 | 6 | -1 | -3.4
CC(C(=O)NC1C=CS(=O)(=O)C1)N1C(=O)/C(=C/c2cccc(Cl)c2)SC1=S (configuration not stated) | . | . | . | -9 | 6.1
O=C(O)CCCn1cc(NC(=O)COc2cc(F)ccc2[N+](=O)[O-])cn1 | 1% | . | 24 | -8 | -9.1
O=C(CSc1nnc(-c2ccco2)o1)c1ccc([N+](=O)[O-])cc1 | 8% | . | . | 34 | -0.8
COC(=O)Cn1c(CN2CCN(C(=O)c3ccco3)CC2)nc2c1c(=O)n(C)c(=O)n2C | . | . | . | -2 | -1.9
CCOc1ccc(CNC(=O)c2ccc3nc(N4CCOCC4)sc3c2)cc1 | . | . | . | 3 | -1.3
COc1cccc(/C=N/NC(=O)c2[nH]c(C)c(C(=O)N/N=C/c3cccc(OC)c3)c2C)c1 | -2% | -11 | 14 | 3 | 2.6
COCCNC(=S)N/N=C/c1ccc([N+](=O)[O-])cc1 | -3% | . | . | 1 | -0.1
COCCCNC(=S)Nc1ccc(OC(F)F)cc1C | -5% | . | -5 | -6 | 0.4
COC(=O)c1ccc(COC(=O)c2ccc(CO)cc2)o1 | 7% | -15 | 4 | 7 | 0.2
Cc1cccc(C)c1NC(=O)COC(=O)C1Cc2ccccc2CN1C(=O)c1ccccc1 (configuration not stated) | -3% | -27 | -1 | -4 | 3.7

The final 6 compounds of the part before open the next one:
SMILES | Mtb H37Rv | YopH inh | Arbovirus anti | Mtb betalactam | RecA intein inh | others
CCOc1ccc(CNC(=O)c2ccc3nc(N4CCOCC4)sc3c2)cc1 | . | . | . | 3 | -1.3
COc1cccc(/C=N/NC(=O)c2[nH]c(C)c(C(=O)N/N=C/c3cccc(OC)c3)c2C)c1 | -2% | -11 | 14 | 3 | 2.6
COCCNC(=S)N/N=C/c1ccc([N+](=O)[O-])cc1 | -3% | . | . | 1 | -0.1
COCCCNC(=S)Nc1ccc(OC(F)F)cc1C | -5% | . | -5 | -6 | 0.4
COC(=O)c1ccc(COC(=O)c2ccc(CO)cc2)o1 | 7% | -15 | 4 | 7 | 0.2
Cc1cccc(C)c1NC(=O)COC(=O)C1Cc2ccccc2CN1C(=O)c1ccccc1 (configuration not stated) | -3% | -27 | -1 | -4 | 3.7
S=C1N(c2ccccc2)C(c2cccc3ccccc23)N2CCCN12 (configuration not stated) | -2% | -5 | -6 | -4 | 2.1
Cc1cccc(-c2nnc(SCC#N)n2C)c1 | 2% | . | 3 | -5 | -3.0
CCOC(=O)NC(=O)CSc1nc2ccccc2[nH]1 | 0% | . | -1 | -4 | 0.9
C=CCC1(CC=C)CCCN1C(=O)C1CCC(=O)N(CCc2ccc(Cl)cc2)C1 (configuration not stated) | . | . | . | 5 | 1.8
O=C(C1COc2ccccc2O1)N1CCN(c2ccc(F)cc2)CC1 (configuration not stated) | 2% | -14 | 17 | 12 | 0.7
C=CCn1c(SCC(=O)c2c(N)n(CCC)c(=O)n(C)c2=O)nc2sc(CC)cc2c1=O | 7% | -10 | -10 | -1 | 1.2
O=[N+]([O-])c1cc(Br)c(Nc2ccccc2)c([N+](=O)[O-])c1 | . | . | . | 100 | 64*
COC(=O)c1c(NC(=O)CC2SC(N)=NC2=O)sc2c1CCCC2 (configuration not stated) | 0% | -32 | -5 | -2 | -1.7
COc1ccc([N+](=O)[O-])cc1NC(=S)NC(NC(=O)Cc1ccc(OC)c(OC)c1)C(Cl)(Cl)Cl (configuration not stated) | -7% | -26 | -11 | -3 | 0.1
CC(=O)Nc1ccc(S(=O)(=O)Nc2ccc3[nH]c(=O)[nH]c3c2)cc1 | . | . | . | -5 | -1.1
CC(=O)Nc1ccc(-c2sc(Nc3ccccc3)n[n+]2C)cc1 | . | . | . | 7 | -0.4
CCCCc1cc(=O)oc2cc(O)ccc12 | 75% | . | 10 | -8 | -23
O=C(c1ccc(N2CCN(C(=O)c3cccc(F)c3)CC2)cc1)c1cccc(F)c1 | . | . | . | 95 | 3.9
COc1cccc(N2C(=O)Nc3ccccc3C2(O)C(=O)NCc2ccc3c(c2)OCO3)c1 (configuration not stated) | 5% | 12 | 5 | 3 | 2.1 | Arbovirus anti repeat=2
COc1ccc(C(CC(=O)O)NC(=O)c2ccccc2)cc1OC (configuration not stated) | -7% | -42 | 5 | 4 | .
Cc1cc(C(=O)CSc2nc3ccccc3[nH]2)c(C)n1Cc1ccco1 | 7% | -34 | 12 | -2 | 0.1
CC(C)c1nc(CN(C)C(=O)N[C@H](C(=O)N[C@@H](Cc2ccccc2)C[C@H](O)[C@H](Cc2ccccc2)NC(=O)OCc2cncs2)C(C)C)cs1 | 5%&4% | . | -15 | 1 | 5.1
Cc1nc(-c2ccc(C(=O)N3CCCC3)cc2)cs1 | 1% | . | -5 | -7 | -0.4
CO[C@@]1(NC(=O)CSCC#N)C(=O)N2C(C(=O)O)=C(CSc3nnnn3C)CS[C@@H]21 | -4% | -28 | -2 | 0 | -3.2
Oc1[nH]c2ccc(Br)cc2c1N=Nc1ccc(F)cc1 | . | . | . | 42 | -10.0
CC(C)(C)c1ccc(-c2nnc(SCC(=O)c3ccc4c(c3)OCCO4)o2)cc1 | . | -4 | 3 | -7 | -0.5
COc1ccccc1CNC(=O)CN1C(=O)COc2ccc(S(=O)(=O)NC3CCCC3)cc21 | . | . | . | 4 | 1.2
CCC(CC)C(=O)Nc1ccc(Nc2ccccc2)cc1 | 5% | -23 | -9 | 8 | -2.2
CN(C)c1nc(SCC#N)nc(N(C)C)n1 | -7% | -95 | 4 | 2 | 0.3
CCn1cc(/C=N/N=C2\CCC3C4CCc5cc(O)ccc5C4CC[C@]23C)c(C)n1 (some centres not stated) | 7% | -5 | -18 | -2 | -0.5
Cc1ccccc1C(=O)N1CC(=O)Nc2ccc(F)cc2C1c1ccc(F)cc1 (configuration not stated) | . | . | . | 9 | 4.6
COc1cc(/C=C2\SC(=S)N(NC(=O)c3cccnc3)C2=O)ccc1O | -4% | . | . | -5 | 1.3
Cc1ccccc1N1CCN(CCC(=O)Nc2ccc(F)cc2)CC1 | . | . | . | 0 | 10
O=[N+]([O-])c1cccc(/C=N/NS(=O)(=O)c2ccccc2)c1 | 3% | . | -1 | -1 | 0.6
Cc1ccc(OCc2nnc(SCC(=O)c3ccccc3)n2Cc2ccco2)cc1 | -1% | -41 | 2 | -8 | 5.8
C=CCOC(=O)C1=C[C@H](c2csc3ccccc23)[C@@H](CCCO)[C@H](OCC)O1 | 4% | . | -3 | 5 | 6.1
COc1ccc(C=Nc2ccc3[nH]ncc3c2)c(O)c1 | 4% | . | -1 | 1 | 1.7
CCN(CC)S(=O)(=O)c1ccc(C(=O)NCc2ccc3[nH]c4c(c3c2)CCCC4)cc1 | 15% | -28 | -5 | -13 | -30
CCC(C)NC(=O)C1c2ccccc2C(=O)N1Cc1ccccc1OC (configuration not stated) | -11% | -23 | 7 | -9 | 0.0
COc1ccc(N(C(=O)c2snc(C(N)=O)c2N)C(C(=O)NC2CCCC2)c2ccc(OC)c(OC)c2)cc1 (configuration not stated) | . | . | . | -5 | 1.4
COCCNC(=O)CN(c1cc(Cl)ccc1OC)S(C)(=O)=O | -2% | -11 | 3 | 4 | 0.6
C/C(CC(=O)Nc1cc(C)ccn1)=N\NC(=O)COc1cccc(C)c1 | 5% | -31 | -4 | . | 94*
COc1ccc(NC(=O)CN2CCN(CC(=O)Nc3cc(OC)cc(OC)c3)CC2)cc1 | -5% | . | -4 | . | .
COCCN1Cc2cccc(C(=O)Nc3ccc(C)c(C)c3)c2C1=O | 2% | -33 | 4 | 2 | -3.4
CSC1=N/C(=C\c2ccccc2)C(=O)N1C | 3% | -17 | -1 | -6 | -1.2
Cc1cc(C)n(Cc2ccc(NC(=O)c3c([N+](=O)[O-])c(C)nn3C)cc2)n1 | 1% | 15 | -6 | -11 | 1.4
CCOC(=O)c1ccc(NC(=O)c2nc[nH]c2C(=O)N[C@@H](CC(C)C)C(=O)OC(C)(C)C)cc1 | 8% | . | . | 14 | -1.0
CCOC(=O)C1=C(CSc2nc(-c3ccccc3)ccc2C#N)OC(N)=C(C#N)C1c1cccnc1 (configuration not stated) | -2% | 9 | 8 | -12 | -11
CC(=O)N1CCN(C2=NC(=O)/C(=C\c3cccs3)S2)CC1 | -3% | . | 3 | 6 | 2.5
CCN(CCCNC(=O)c1c(C)cc(=O)oc1C)c1ccccc1 | -9% | -31 | 2 | . | .
O=C(NCCN1CCCC1)c1ccc(Br)cc1 | . | . | . | -5 | -3.0
O=C(OCC(=O)N1CCN(C(=O)c2ccco2)CC1)c1cc(-c2ccc(Cl)c(Cl)c2Cl)nc2ccccc12 | 4% | -12 | -39 | -5 | .
CO/N=C(\Cn1ncc(NC2CCCCC2)c(Br)c1=O)c1ccc(Cl)cc1 | 46% | -3 | -18 | 79 | 11
COc1cccc(-n2cc(CN(C)Cc3nc(Cc4ccccc4)no3)cn2)c1 | 14% | . | -3 | -7 | 1.7
CCCn1c(CN2CCCCC2CC)nc2c1c(=O)n(C)c(=O)n2C (configuration not stated) | 1% | -17 | -2 | -5 | -1.1 | Arbovirus anti repeat=4

Arranged by formula weight (high to low): some entries from above
SMILES | Mtb H37Rv | YopH inh | Arbovirus anti | Mtb betalactam | RecA intein inh | others
CCOC(=O)c1ccc(NC(=O)c2nc[nH]c2C(=O)N[C@@H](CC(C)C)C(=O)OC(C)(C)C)cc1 | 8% | . | . | 14 | -1.0
COc1cccc(-n2cc(CN(C)Cc3nc(Cc4ccccc4)no3)cn2)c1 | 14% | . | -3 | -7 | 1.7
CCCn1c(CN2CCCCC2CC)nc2c1c(=O)n(C)c(=O)n2C (configuration not stated) | 1% | -17 | -2 | -5 | -1.1 | Arbovirus anti repeat=4

More entries:
SMILES | Mtb H37Rv | YopH inh | Arbovirus anti | Mtb betalactam | RecA intein inh | others
COc1ccc(CCN(C)Cc2cccc3ccccc23)cc1OC | . | . | . | 3 | 0.8
O=C(CCC(=O)N(c1ccc(F)cc1)C(C(=O)NC1CCCC1)c1ccncc1)Nc1cccnc1 (configuration not stated) | -18% | -20 | 4 | -7 | 0.3
CC(=O)c1ccc2c(c1)C1C=CCC1C(c1ccc(S(=O)(=O)N3CCOCC3)cc1)N2 (configuration not stated) | 5% | 3 | -2 | 4 | .
CCOC(=O)c1ccc(-c2csc(NC(=O)CN3CCC(C)CC3)n2)cc1 | . | . | . | -1 | 1.3
O=C(O)CCn1c(=S)n(CCC(=O)O)c2ccccc21 | 4% | . | . | -3 | 0.6
